Source: PubChem
Prx2 Sm inh: Schistosoma mansoni Prx2 inhibition; AID 448; Potency, µM; 65,000 tested, 0.07% active; S. mansoni Prx2 activity coupled to TGR/GSH (TGR is thioredoxin glutathione reductase), NADPH fluorescence loss, qHTS; some inactives read as strong as hits; active means full or partial inhibition curve with a strong effect at the top dose; inconclusive means weaker partial or single-point curve; inactive means no accepted curve; also: series up to 57 µM; many of its hits are not listed in these tables
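Enzyme mix: 100 uM NADPH, 25 nM TGR, 700 uM GSH, 50 nM Prx2 in 100 mM phosphate pH 7.4, 10 mM EDTA, 0.01% Tween-20. 15 min RT with compound; NADPH/GSH added, H2O2 starts reaction; NADPH fluorescence read 8 min.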
LT uptake inh: blocks cellular internalization of anthrax lethal toxin. Cells, anthrax lethal toxin internalization, FRET ratio (460/530). Potency, µM (doses to about 40 µM), without a hit: at the top dose activity change, negative = inhibition, hits mostly inhibitors. 70,000 tested, 0.67% active. AID 912; active = well fitted falling ratio curve with the 530 nm signal flat; inconclusive = other ratio curves, or a change in one channel alone; inactive = flat curves in the ratio and both channels; the % refers to the ratio; also: % is scaled to controls: 0 for no effect and ±100 for the full control effect; nearly all actives have a fitted effect of over 50% in size; tested in ME-180 cells; beta-lactamase reporter
* marks the source's active call; other numbers are inactive results; ? = inconclusive; . = no result given; [ ] = dose if it differs, or a comment. Potency is read from the fitted curve at half-maximal effect. These rows are one share of the data; rates above refer to the full screens.

SMILES	Prx2 Sm inh	LT uptake inh
CCSc1nnc(-c2ccc(S(=O)(=O)N3CCCC3)cc2)n1C	>57	-12%
CSc1ccccc1NC(=O)c1ccco1	>57	3%
CC(C)=NOC[C@@H](O)COCc1ccco1	.	3%[8 µM]
CC1(C)[C@@H]2CC[C@@]1(C)C(=O)C2	.	1%
CCCNc1ncnc2sc(C)c(C)c12	>57	3%
O=C(c1cc2ccccc2o1)N1CCN(c2ccccc2Cl)CC1	>57	?
COc1ccc(Cl)c(Cn2c(NCCCN(C)C)nc3c2c(=O)n(C)c(=O)n3C)c1	>57	11%
S=c1[nH]ncn1-c1ccccn1	>57	-10%
CCOC(=O)CSc1nnc(NC(=O)c2cccc(S(=O)(=O)N3CCCC3)c2)s1	>57	-4%
O=C(COc1ccc2ccccc2c1CN1CCOCC1)N1CCc2ccccc21	>57	?
CCOC(=O)c1c(C)[nH]c(C(=O)OCC(=O)N2CC(C)OC(C)C2)c1C (centres undefined)	>57	-6%
CCOC(=O)CSc1nc2cc(C(=O)NCc3ccco3)ccc2c(=O)n1C1CCCCC1	>57	-1%
CCN(CC)S(=O)(=O)c1ccc(C(=O)Nc2ccc(OCC(=O)N3CCOCC3)cc2)cc1	.	-6%
Cc1nc2cnc(N(C)C)nc2n(CCC#N)c1=O	>57	9%
Cc1ccc(C)n1CCN1CCN(CC(=O)Nc2cc(C(F)(F)F)ccc2Cl)CC1	>57	-2%
Cc1cc(NC(=O)CSc2nnc3c(C)cc4ccccc4n23)no1	>57	-3%
Cc1cnc(CNc2ccnc(-c3ccccc3C(F)(F)F)n2)cn1	>57	0%
COC(=O)c1cc(OC)c(OC)cc1NC(=O)c1c(-c2ccccc2Cl)noc1C	.	-4%
COCC(=O)NCc1ccc2c(c1)OCO2	.	-11%
Clc1ccc(OCc2nc(-c3ccncc3)no2)c(Br)c1	>57	?

Single records, as listed above. Order of values: Prx2 Sm inh, LT uptake inh
Cc1nc2cnc(N(C)C)nc2n(CCC#N)c1=O as listed: >57, 9%
CCOC(=O)CSc1nc2cc(C(=O)NCc3ccco3)ccc2c(=O)n1C1CCCCC1 as listed: >57, -1%
Cc1cnc(CNc2ccnc(-c3ccccc3C(F)(F)F)n2)cn1 as listed: >57, 0%
Clc1ccc(OCc2nc(-c3ccncc3)no2)c(Br)c1 as listed: >57, ?
COC(=O)c1cc(OC)c(OC)cc1NC(=O)c1c(-c2ccccc2Cl)noc1C as listed: ., -4%

Next part:
SMILES	Prx2 Sm inh	LT uptake inh
Nn1c(Nc2ccccc2)nc2ccccc2c1=O	.	-28%
CCOC(=O)Oc1ccc2oc(C)c(C(=O)OCCOC)c2c1	>57	-13%
CCOC(=O)/C(C#N)=C1/CCCCCN1C	>57	7%
CC(C)CO/N=C1/[C@H]2O[C@@H]2[C@@H](O)[C@H]2[C@H]1CCn1c(=O)n(-c3ccccc3)c(=O)n12	.	-10%[8 µM]
COc1ccc(NC(=O)C2=C(C)C(=O)OC23CCC(C)CC3)c(OC)c1 (centres undefined)	>57	6%
CNC(=O)c1cc2c(=O)n3cc(C)ccc3nc2n(Cc2ccco2)c1=N	>57	?
Cc1cc(C(=O)Nc2ccc3c(c2)OCO3)cs1	>57	.
CSCCC(NC(=O)c1ccccc1)C(=O)NC1CCCC1 (centres undefined)	>57	-8%
Cn1c[n+](C)cc1C(O)c1ccccc1 (centres undefined)	>57	3%
Cc1ccc2[nH]cc(C(=O)CN3CCN(c4ccccn4)CC3)c2c1	>57	-8%

3 entries already listed, ordered by SMILES length, smallest number first.
SMILES	Prx2 Sm inh	LT uptake inh
Cn1c[n+](C)cc1C(O)c1ccccc1 (centres undefined)	>57	3%
Cc1cc(C(=O)Nc2ccc3c(c2)OCO3)cs1	>57	.
CSCCC(NC(=O)c1ccccc1)C(=O)NC1CCCC1 (centres undefined)	>57	-8%

Continuation.
SMILES	Prx2 Sm inh	LT uptake inh
COc1ccc(Nc2nc(C)cc(C)c2C#N)cc1OC	.	-11%
Cc1ccc(-n2nc(C)c(C3C(C#N)=C(N)OC4=C3C(=O)CCC4)c2Cl)cc1 (centres undefined)	>57	-16%
COc1ccc(Cl)cc1C(=O)Nn1cnc2ccccc2c1=O	>57	15%
CCCn1c2ccccc2c2nnc(SCC(=O)OC)nc21	.	-8%
COc1ccccc1S(=O)(=O)Cc1ccc(C(=O)N2CCN(c3cccc(Cl)c3)CC2)o1	>57	?
O=C1c2ccccc2C(=O)N1C/C=C/CN1C(=O)c2ccccc2C1=O	.	-9%
O=C(NC(Cc1ccccc1)C(=O)N1CCC2(CC1)OCCO2)C1CCCCC1 (centres undefined)	>57	7%
O=C(O)Cn1c(=O)oc2cc(S(=O)(=O)NC3CCCCC3)ccc21	>57	-3%
O=P(O)(CN1CCCCCC1)CN1CCCCCC1	>57	-5%
CN(C)c1ccc(CNC(=O)C2(C)C=CCN2C(=O)c2ccccc2)cc1 (centres undefined)	.	13%
Cc1ccccc1Cn1c(=O)n(Cc2ccco2)c(=O)c2ccccc21	>57	-12%
COCCNC(=O)CN(C(=O)CCC(=O)Nc1ccccn1)c1ccc(F)c(Cl)c1	>57	?
COC(=O)[C@@H](NC(=O)Nc1ccc(C(C)=O)cc1)C(C)C	>57	0%
CC(C)c1ccc(NC(=O)N2CCC(c3nc4ccccc4o3)CC2)cc1	>57	?
CCCCOc1ccc(NC(=O)C2CC=CCC2C(=O)O)cc1 (centres undefined)	.	2%
Cc1cc2n(n1)C(c1ccc(O)cc1)Nc1ccccc1-2 (centres undefined)	>57	-5%
COc1cc2[nH]c(=O)n(CCCCCC(=O)N3CCN(c4ccccc4)CC3)c(=O)c2cc1OC	>57	?
O=[N+]([O-])c1ccccc1CCl	.	-4%
CCN(CC)CCNC(=O)Cn1c(-c2ccccn2)nc2ccccc21	>57	2%
CCCC(=O)N=C1SC2CS(=O)(=O)CC2N1c1ccc(C(C)=O)cc1 (centres undefined)	>57	.
COc1nc(-c2ccccc2)cc(-c2ccccc2)n1	>57	?
CC(C)CN1CC2(CCN(C(=O)c3cnccn3)CC2)C1	>57	?
C=CCn1cc(C(=O)NCc2cccnc2)c(=O)c2cc(S(=O)(=O)N(CC)CC)ccc21	>57	-6%
c1ccc(OCc2nc(-c3ccccc3)no2)cc1	>57	?
Cc1cc(C(=O)CN2CC(C)OC(C)C2)c(C)n1-c1ccccc1 (centres undefined)	>57	7%
CC(C)(C)n1c(=O)[nH]c2c(c1=O)CCC2	>57	2%
O=C(NCc1cccnc1)c1cccc(S(=O)(=O)N2CCOCC2)c1	>57	0%
CCCCOc1ccc(C2C3CN(C(=O)OCC)CC=C3C(C#N)=C(N)C2(C#N)C#N)cc1OC (centres undefined)	>57	?
COc1cc2c(cc1OC)CN(CC(=O)NC(=O)NCc1ccco1)CC2	>57	12%
COc1ccc(-c2cc(C(F)(F)F)nc(N3CCN(C)CC3)n2)cc1	>57	9%
O=C(Oc1cccnc1)c1ccc(Cl)c(Cl)c1	>57	3%
Cc1ccc(-c2csc(N)n2)s1	>57	?
COC(=O)CC1=C(C(=O)OC)C2(C(=O)N(C)c3ccccc32)C(C#N)=C(N)O1 (centres undefined)	>57	-9%
COc1ccc(NC(=O)c2oc3ccccc3c2NC(=O)c2ccco2)c(OC)c1	>57	-2%
N#Cc1cccc(-c2ccc3ncnc(N4CCNCC4)c3c2)c1	>57	-3%
CN1CCN(c2ncc3nc(CCc4ccccc4)c(=O)n(Cc4cccs4)c3n2)CC1	>57	?
CC(C)c1ccc(OCC(O)CN2CCN(c3ccccc3)CC2)cc1 (centres undefined)	>57	-22%
O=c1c2ccccc2nnn1CSc1nnc(C2COc3ccccc3O2)n1-c1ccccc1 (centres undefined)	>57	-12%
CCOc1ccc(C2N(c3ccc(OC)cc3)C(=O)C3CCCN32)cc1OC (centres undefined)	>57	3%
COc1ccc(OC)c(C(=O)CSc2nnc(-c3ccc(OC)c(OC)c3)o2)c1	>57	-7%
C[N+]1(C)CCC[C@@H](OC(=O)C(O)(c2ccccc2)c2ccccc2)C1	>57	-2%[3.58 µM]
c1ccc(CCc2nn3c(Cc4ccccc4)nnc3s2)cc1	>57	.
O=C(c1ccccc1C(F)(F)F)N1CCN(S(=O)(=O)c2ccccc2)CC1	>57	0%
CCCOC(=O)CSc1nnc(-c2ccccc2Cl)o1	>57	-6%
O=C(Nn1cnnc1)c1cc(-c2ccccn2)nc2ccccc12	>57	6%
Oc1ccc(CCNCc2cc3c(cc2Br)OCO3)cc1	>57	-3%[8 µM]
CCN(c1ccccc1)S(=O)(=O)c1ccc2[nH]cc(C(=O)N3CCOCC3)c(=O)c2c1	>57	4%
CCOC(=O)CSc1nnc(CNC(=O)c2cc(OCC)c(OCC)c(OCC)c2)n1C	>57	-11%
CN1CCCC(OC(=O)COc2ccc(Br)cc2)C1 (centres undefined)	>57	0%
CCCOCC(C)OCC(C)O (centres undefined)	.	-7%
Remaining list, next part.
SMILES	Prx2 Sm inh	LT uptake inh
O=C(CCC(=O)OCCCC(F)(F)C(F)(F)F)NC1CCCCC1	>57	-5%
O=C(Nc1nc2ccc(S(=O)(=O)N3CCCC3)cc2s1)c1cccs1	>57	-5%
CCOC(=O)C1C(=O)NC(N2CCN(Cc3ccccc3)CC2)=NC1c1ccco1 (centres undefined)	>57	?
Cc1occc1C(=O)NCCCCNC(=O)c1ccoc1C	>57	1%
Cn1c(Cn2nnc3ccccc32)nnc1SCC(=O)Nc1ccc2c(c1)OCO2	>57	8%
O=C(O)CCS(=O)(=O)Cc1cccc(Cl)c1	.	5%
Cc1cc(NCCCCO)n2c(nc3ccccc32)c1C#N	>57	9%
Cn1c(=O)cc(SCC(=O)N2CCCC2)c2ccccc21	>57	2%
CCCOc1ccc(C2C(=O)N(C3CCCCC3)CC(=O)N2CCCOCC)cc1OC (centres undefined)	>57	.
CC1N=C2c3ccccc3N=C(SCc3cc(=O)n4cc(Cl)ccc4n3)N2C1=O (centres undefined)	>57	-4%
O=S(=O)(c1cccc(-c2nnc(SC(F)F)n2-c2ccccc2)c1)N1CCCCC1	>57	-10%
Cc1nc(CC(=O)c2c(C)cc(O)cc2O)cs1	.	1%
O=C(Nc1cccc(Cl)c1)N1CCN(c2ncccn2)CC1	>57	4%
CC(=O)c1cccc(NC(=O)C2CCN(S(C)(=O)=O)CC2)c1	>57	6%
O=C(NCc1cccnc1)[C@@H]1[C@@H](C(=O)O)[C@H]2CC[C@@H]1O2	>57	-2%[8 µM]
CC(C)Oc1ccc(C2CNC(=O)C2)cc1 (centres undefined)	>57	0%
C=CCC1C=CC(Oc2ccc(OC)cc2)C(COC(=O)c2ccc(Br)cc2)O1 (centres undefined)	.	-13%[8 µM]
COc1cccc(C(=O)CSc2nnc(-c3cc(OC)c(OC)c(OC)c3)o2)c1	>57	-1%
COc1ccc2[nH]c3c(=O)n(Cc4ccco4)cnc3c2c1	>57	?
CCc1cc(=O)oc2cc(OCC(=O)O)c(Cl)cc12	>57	-5%
O=C(CSc1nnc(-c2cccs2)n1-c1ccccc1)N1CCN(C(=O)c2ccco2)CC1	>57	1%
COc1cccc(CNC(=O)C2CCN(S(=O)(=O)c3cnc[nH]3)CC2)c1	>57	0%
CCNc1ncc2nc(-c3ccc(Cl)cc3)c(=O)n(C)c2n1	>57	1%
COC(=O)c1ccc(CNC(=O)CNc2cc(C(F)(F)F)ccc2N2CCOCC2)cc1	>57	2%
COc1ccc(N2CCN(C(=O)CSc3nnc(-c4ccc5[nH]c(C)c(C)c5c4)o3)CC2)cc1	>57	9%
c1ccc(CN2CCC3(CC2)Nc2ccccc2CO3)cc1	>57	.
CC1=CC(C)(C)N=C(Nc2ccc(C)cc2)S1	>57	?
CCOC(=O)C1C(=O)Nc2nc3ccccc3n2C1C(C)C (centres undefined)	>57	0%
O=C(COC(=O)Cn1[nH]c(=O)c2ccccc2c1=O)Nc1ccc2c(c1)OCO2	>57	-10%
Nc1nc(-c2ccccc2)cc(C(F)(F)F)n1	>57	-11%
CCOC(=O)CSc1nc2cc3c(cc2cc1C#N)OCO3	>57	2%
Clc1ccccc1OCCn1cnc2ccccc21	>57	7%
COC(=O)N1CCC2(CCCN(C(=O)Nc3ccc(OC)cc3)C2)CC1	>57	-7%
CCOC(=O)c1ccc(NC(=O)CSc2nnc(COc3ccccc3)n2C)cc1	>57	5%
Cc1nnc2n(Cc3ccccc3)c(=O)c3c4c(sc3n12)COC(C)(C)C4	>57	1%
O=C(CSc1nnc2scc(-c3ccccc3)n12)Nc1ccc2c(c1)OCCO2	>57	9%
CC(C)(Oc1cccc2ccccc12)C(=O)O	>57	0%
Cc1ccc(-n2nc3c(c2NC(=O)c2cccs2)CSC3)cc1	>57	-5%
CCNc1ncc2ncc(=O)n(CCOC)c2n1	>57	?
COc1nc(C#N)nc(N(C)C)n1	>57	-3%
COc1ccccc1C(=O)NCCn1cc(SCC(=O)NCc2ccco2)c2ccccc21	>57	?
C=CCn1c(=O)c(C(=O)Nc2ccccc2OC)c(O)c2ccccc21	>57	-10%
CC(C)CCSc1nc(N)c(C#N)cc1C#N	>57	-16%
COc1ccccc1-c1nc(S(=O)(=O)c2ccc(Cl)cc2)c(N(C)C)o1	.	-5%
O=C(COC(=O)c1ccccc1Oc1ccccc1)NC1CCS(=O)(=O)C1 (centres undefined)	>57	6%

Of the compounds above, 4 have bromine.
SMILES	Prx2 Sm inh	LT uptake inh
Clc1ccc(OCc2nc(-c3ccncc3)no2)c(Br)c1	>57	?
Oc1ccc(CCNCc2cc3c(cc2Br)OCO3)cc1	>57	-3%[8 µM]
CN1CCCC(OC(=O)COc2ccc(Br)cc2)C1 (centres undefined)	>57	0%
C=CCC1C=CC(Oc2ccc(OC)cc2)C(COC(=O)c2ccc(Br)cc2)O1 (centres undefined)	.	-13%[8 µM]
